RE007 growth inh: less growth of the S. pombe RE007 Vpr strain; S. pombe RE007 Vpr strain, BacTiter-Glo ATP luminescence, 24 h; control for the full effect not named in the record; Potency, µM (titrated, usually from 92.2 µM), without a hit: at the top dose activity change, negative = less growth; 360,000 tested, 0.21% active; active = well fitted falling curve with a large enough effect; inconclusive = small, poorly fitted or top-dose-only effect; inactive = no such curve, though single readings can be large or run the other way;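 also: % is scaled to controls: 0 for no effect and ±100 for the full control effect; nearly all actives have a fitted effect of over 50% in size; the assay follows cell death caused by Vpr and the record does not say whether a fall means rescue or toxicity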
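Fission yeast RE007 carrying one integrated HIV-1 vpr copy, seeded at OD 0.01 in PMG+AL medium with 23 nL pinned compound. Grown 24 h at 30 degrees; viability read by BacTiter-Glo luminescence after 5 min.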
NS1 inh: inhibitors of influenza NS1 protein function. S. cerevisiae slowed by influenza A NS1, growth recovery by OD600. Potency, µM (titrated, usually from 46.1 µM), inactives show at the top dose activity, positive = more growth. 270,000 tested, 0.4% active. AID 2326; also: actives are rising curves; nearly all actives have a fitted effect of over 50% in size
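In this qHTS, NS1 from influenza A is expressed in budding yeast, where it slows growth. Cells are switched from glucose to 2% galactose medium (pH 6.0, -URA), treated with compound, and growth recovery is read at OD600.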
StopGo reporter: lowers the luciferase signal of an FMDV 2A StopGo reporter; human cells with a luciferase reporter of 2A StopGo recoding; control for the full effect not named in the record; Potency, µM (top dose mostly 57.9 µM), for inactives: at the highest dose signal change, negative = less light; 410,000 tested, 1.2% active; active = well fitted falling curve with a large enough effect; inconclusive = small, poorly fitted or top-dose-only effect; inactive = no such curve, though single readings can be large or run the other way; tested in HEK293T cells; also: % is scaled to controls: 0 for no effect and ±100 for the full control effect; nearly all actives have a fitted effect of over 45% in size; luciferase light after 4 h
Lassa entry inh: Lassa virus entry inhibition | Lassa virus pseudotype entry inhibition, cell reporter; control for the full effect not named in the record | Potency, µM (titrated, usually from 37.9 µM), inactives show top-dose activity change, negative = inhibition, hits mostly inhibitors | 300,000 tested, 1.2% active; active means well fitted inhibition curve with a large enough effect; inconclusive means small, poorly fitted or top-dose-only effect, or effect the other way; inactive means flat fitted curve, though single readings scatter; tested in HEK293 cells; also: % is scaled to controls: 0 for no effect and ±100 for the full control effect; nearly all actives have a fitted effect of over 50% in size; luciferase read-out
SARS PLP yeast: SARS-CoV PLP inhibition in yeast; S. cerevisiae expressing SARS-CoV PLpro, growth rescue; control for the full effect not named in the record; Potency, µM (titrated, usually from 32.9 µM), without a hit: top-dose activity, positive = growth rescue; 330,000 tested, 0.19% active; AID 485353; also: 0% is about no effect; nearly all actives have a fitted effect of over 55% in size; growth read by luminescence after 48 h
Cruzain noTriton: cruzain (T. cruzi) inhibition without detergent; P25779; purified cruzain, Z-FR-AMC fluorescence, no detergent; Potency, µM, without a hit: max response, negative = inhibition, hits mostly inhibitors; 200,000 tested, 2.3% active; active = well fitted curve in the direction sought with a large enough effect; inconclusive = small, poorly fitted or top-dose-only effect, or another doubt; inactive = no such curve, though single readings can be large; an effect the other way counts as inactive or inconclusive;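 also: plate controls were enzyme without inhibitor for no effect and buffer without enzyme for full effect; nearly all actives have a fitted effect of over 40% in size; top concentration of the series not given in the record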
Target sequence (P25779 123-467 limits assumed): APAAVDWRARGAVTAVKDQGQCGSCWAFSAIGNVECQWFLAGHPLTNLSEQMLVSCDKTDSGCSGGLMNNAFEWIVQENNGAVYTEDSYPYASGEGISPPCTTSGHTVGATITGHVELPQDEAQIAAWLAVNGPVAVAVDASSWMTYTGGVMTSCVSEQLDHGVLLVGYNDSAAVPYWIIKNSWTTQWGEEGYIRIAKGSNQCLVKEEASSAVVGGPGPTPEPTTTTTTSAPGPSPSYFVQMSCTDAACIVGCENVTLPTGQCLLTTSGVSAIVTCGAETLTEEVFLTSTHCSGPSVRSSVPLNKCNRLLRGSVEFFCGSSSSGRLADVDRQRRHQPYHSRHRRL
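Detergent-free condition (0.00005% Triton X-100) in acetate buffer pH 5.5 with DTT. 1.5 nM enzyme and compound were pre-mixed 15 min, then 2 uM Z-FR-AMC substrate added; reaction progress from fluorescence change between first and third reads (60 s).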
Marburg entry inh: Marburg virus entry inhibition. Marburg virus pseudotyped entry inhibition, cell reporter; control for the full effect not named in the record; about a third of the inactives were read at about 46 µM. Potency, µM (titrated, usually from 37.8 µM), for inactives: at the highest dose activity change, negative = inhibition, most hits filed as inhibitors. 300,000 tested, 1.8% active. AID 540276; active = well fitted inhibition curve with a large enough effect; inconclusive = small, poorly fitted or top-dose-only effect, or effect the other way; inactive = flat fitted curve, though single readings scatter; tested in HEK293 cells; about a fifth of its hits are not listed in these tables; also: % is scaled to controls: 0 for no effect and ±100 for the full control effect; luciferase read-out
Cruzain Triton: cruzain (T. cruzi) inhibition with detergent | 200,000 tested, 0.43% active | Potency, µM, for the others: max response, negative = inhibition, hits mostly inhibitors | AID 1478 | P25779 | purified cruzain, Z-FR-AMC fluorescence, 0.01% Triton; active = well fitted curve in the direction sought with a large enough effect; inconclusive = small, poorly fitted or top-dose-only effect, or another doubt; inactive = no such curve, though single readings can be large; an effect the other way counts as inactive or inconclusive;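 also: plate controls were neutral wells for no effect and buffer without enzyme for full effect; nearly all actives have a fitted effect of over 40% in size; top concentration of the series not given in the record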
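Z-FR-AMC hydrolysis (2 uM substrate) by cruzain (1.5 nM) monitored kinetically at ex 360/em 450 nm after 15 min room-temperature compound exposure; 0.01% Triton X-100, pH 5.5, 5 mM DTT.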
Active calls of the source: *; ? = inconclusive; · = not tested or not shown; & = joins results of further samples; [ ] = remark or other dose. Unless noted, calls follow the shape of the dose curve; as a rule, active means well fitted rising curve with a large enough effect; inconclusive means small, poorly fitted or top-dose-only effect; inactive means no such curve, though single readings can be large or run the other way. Potency is read from the fitted curve at half-maximal effect.

SMILES | RE007 growth inh | NS1 inh | StopGo reporter | Lassa entry inh | SARS PLP yeast | Cruzain noTriton | Marburg entry inh | Cruzain Triton
COc1ccc(-c2csc(NC(=O)Cc3ccccc3F)n2)cc1OC | 30.5% | 4.6% | -26.9% | · | -42.1% | · | ? | ·
CCCCn1c(SCc2c(C)noc2C)nc2cc(S(N)(=O)=O)ccc21 | 0.0% | 1.0% | 24.7% | ? | 2.0% | 2.0% | ? | -3.5%
COc1ccc(NC(=O)CS(=O)(=O)c2cn(CC(=O)N3CCOCC3)c3ccccc23)cc1 | -9.9% | · | 3.0% | 12.8%[46.1 µM] | -0.1% | · | 0.5%[46.1 µM] | ·
C/C(=N/Nc1nc(-c2ccc(Cl)cc2)cs1)c1cccs1 | 17.5% | 2.7% | 39.3%[activator] | 23.9% | -2.9% | 3.98µM* | ? | ?
COCCNC(=O)Cn1nc(-c2ccc(Cl)cc2)c2ccccc2c1=O | 12.2% | -2.2% | -11.5% | -1.3%[46.1 µM] | -0.7% | · | -0.1%[46.1 µM] | ·
COc1ccccc1N(C(C)=O)C1SC(=O)N(c2ccccc2)C1=O (stereo not given) | -4.4% | 3.9% | 0.0% | -1.4% | -2.3% | 3.9% | -14.1% | 3.3%
Cc1ccc(Nc2n[nH]c(=S)s2)cc1F | 4.6% | · | 27.9% | 17.4%[46.1 µM] | · | · | ? | ·
COCC(C)NC(=O)CSc1nc2ccccc2c(=O)n1CCc1ccc(S(N)(=O)=O)cc1 (stereo not given) | 7.1% | -0.4% | -5.3% | -11.8% | -2.5% | · | -28.8% | ·
Cc1ccc(-n2c(=O)c3c(C)c(C)sc3n(Cc3cc(=O)n4ccccc4n3)c2=O)cc1C | -3.4% | 24.1% | -14.3% | -22.0% | -61.7% | ? | ? | -4.8%
Cc1cccc(C)c1-n1ncc(C(=O)N2CCN(c3ccccc3)CC2)c1C1CCN(C(=O)OC(C)(C)C)CC1 | · | · | ? | ? | · | -9.9% | · | -3.6%
CCc1c(C)c(C#N)c2nc3ccccc3n2c1NC | 3.5% | 2.6% | -20.1% | 6.8%[46.1 µM] | 1.5% | · | -3.2%[46.1 µM] | ·
CC(=O)N1CC(C)Oc2ccc(S(=O)(=O)NC(CC(=O)O)c3ccc(C)cc3C)cc21 (stereo not given) | 6.3% | -3.8% | -0.2% | · | -0.1% | · | · | ·
CCC(C)N(C(=O)COC(=O)c1cn(CC)c2nc(C)ccc2c1=O)C1CCS(=O)(=O)C1 (stereo not given) | -6.0% | -10.5% | 7.1% | -10.0% | 3.8% | -2.7% | 20.9%&20.9% | -5.1%
c1ccc(CN2CCC(Nc3nc(-c4cccnc4)nc4ccccc34)CC2)cc1 | ? | · | 0.0% | ? | -5.9% | · | 10µM* | ·
CCOC(=O)N1CCN(S(=O)(=O)c2ccc(OC)c(Cl)c2)CC1 | 2.9% | -11.5% | -23.7% | -3.0% | -2.7% | 5.9% | 16.0% | 0.1%
O=C(CSc1ccccn1)N/N=C/c1ccccc1[N+](=O)[O-] | 18.9% | -0.2% | 21.3% | 1.0% | 14.4% | 1.1% | ? | -6.0%
O=C1CN(c2nc3ccccc3n3cnnc23)CC(=O)N1CCc1ccccc1 | 16.5% | -34.6% | 0.0% | 6.5% | 3.9% | 5.7% | ? | -4.7%
Cc1ccc(C(=O)NCc2ccco2)cc1S(=O)(=O)Nc1cccc(Cl)c1 | 18.6% | 2.8% | 46.0%[activator] | ? | 22.4% | 6.8% | ? | -7.1%
COc1ccc(NS(=O)(=O)c2ccc(Cl)c(N)c2)cc1Br | 0.0% | · | 36.4%[activator] | ? | -6.0% | · | ? | ·
CCOc1c(Cl)cc(/C=N/NC(N)=S)cc1OC | 7.1% | 3.9% | -1.9% | -0.3% | 25.3% | 0.501µM* | -18.6%[46.1 µM] | 2.51µM*
CC1CCCC(C)N1S(=O)(=O)c1ccc(NC(=O)c2ccccc2C(=O)N2CCOCC2)cc1 (stereo not given) | 15.9% | -30.1% | · | -32.1% | 3.1% | 16.1% | -8.6% | 2.7%
Cc1cccc2cc(/C=C/C(=O)c3ccco3)c(Cl)nc12 | -12.9% | -46.7% | -13.1% | 5.2% | 1.5% | · | 10.2%[46.1 µM] | ·
CS(=O)(=O)Nc1ccc(-c2cn3c(n2)SCC3)cc1 | 3.9% | 2.9% | 27.6% | · | 1.1% | · | · | ·
O=C(NCCc1csc(-c2cccnc2)n1)c1ccc(Cl)cc1 | 4.5% | -5.1% | -10.5% | · | -0.5% | · | · | ·
c1ccc(-n2nnnc2-n2cnc3ccccc32)cc1 | 3.7% | -6.4% | · | -11.6% | 0.8% | 8.0% | -2.3% | 3.1%
CN(CC(=O)Nc1ccc(F)cc1)C(=O)CCc1nc2sc3c(c2c(=O)[nH]1)CCCC3 | -25.5% | · | -6.4% | -10.3%[46.1 µM] | 3.4% | · | 0.8% | ·
CCNc1ccc(C(=O)OCC)cc1NC(=O)c1cccc(S(=O)(=O)N2CCOCC2)c1 | -2.4% | -33.9% | · | 0.4% | -7.7% | ? | -0.6%&2.4% | 4.6%
O=C(NCc1cccs1)C1(S(=O)(=O)c2ccccc2)CC=CC1 | -13.5% | 26.9% | -0.5% | · | 5.7% | · | · | ·
CCOc1ncccc1C(=O)OCC(=O)Nc1cc(C(=O)OC)ccc1C(=O)OC | · | 7.3% | · | · | -0.9% | -7.9% | · | 2.8%
COc1ccc2c(Sc3ccccc3)c(C(=O)NCCN(C)C)[nH]c2c1 | · | · | 15.7% | 4.6%[46.1 µM] | · | 17.7% | 17.3%[46.1 µM] | -9.6%
CN(C)/C=C(/C(=O)c1ccccc1Cl)S(=O)(=O)c1ccccc1 | 5.2% | · | 33.3%[activator] | 1.6% | · | · | 0.2% | ·
Cc1ccccc1NC(=O)C(C)OC(=O)c1ccccc1C(=O)N(C)c1ccccc1 (stereo not given) | -5.4% | · | 33.6%[activator] | 2.7% | 2.0% | · | 3.6% | ·
Cc1csc(=O)n1CC(=O)OCC(=O)Nc1cc([N+](=O)[O-])ccc1Cl | -14.3% | · | 0.0% | -2.1% | -1.5% | · | ? | ·
COc1cccc(OC)c1C(=O)NC(=O)Nc1c(F)cc(F)cc1F | -1.8% | 0.7% | 5.3% | -0.6% | -0.8% | · | 10.7%[46.1 µM] | ·
COc1ccc(C2NC(=O)NC3=C2C(=O)CCC3)cc1 (stereo not given) | 5.2% | 7.8% | -8.9% | · | 2.8% | · | · | ·
CSc1nsc(/C=C/Nc2ccc(C(=O)O)cc2)c1C#N | -6.2% | · | 31.8%[activator] | 14.5% | 1.3% | · | 6.1% | ·
COc1ccc(C(C(N)=O)c2ncc(C(F)(F)F)cc2Cl)cc1OC (stereo not given) | 6.8% | 4.9% | -8.9% | 14.3%[46.1 µM] | 0.8% | · | -12.3%[46.1 µM] | ·
CCOc1ccc2nc(SCC(=O)NCc3ccc(S(N)(=O)=O)cc3)[nH]c2c1 | 28.7% | 10.1% | -2.9% | · | -0.5% | · | · | ·
c1ccc(-c2nc(N3CCCCCC3)c3ccccc3n2)nc1 | 22.7% | -106.7% | 25.1µM* | 3.98µM* | -7.6% | -0.7% | ? | 0.7%
CC(=O)c1ccc(OC(C)C(=O)NCC2(N3CCOCC3)CCCCC2)cc1 (stereo not given) | 2.7% | · | 4.3% | -2.1% | -4.8% | · | ? | ·
O=C(NC1CC2CCCC(C1)N2C(=O)Nc1ccccc1)c1ccccc1 (stereo not given) | 0.7% | 4.1% | 30.4%[activator] | -9.5%[46.1 µM] | -0.5% | · | -9.7%[46.1 µM] | ·
COC(=O)c1ccccc1NC1c2ccccc2C(=O)N1c1cccnc1 (stereo not given) | -0.9% | -38.5% | -3.5% | · | -0.3% | -2.7% | · | -5.8%
Cc1ccc(NC(=O)CCSc2nc(-c3ccc4c(c3)OCO4)cc(C(F)(F)F)n2)cc1 | · | · | -8.9% | -19.4%[46.1 µM] | · | 15.0% | -6.5%[46.1 µM] | -4.0%
COc1ccc(OC/C(O)=C(\C#N)c2nc3ccccc3[nH]2)cc1 | -0.4% | 11.4% | 17.9% | 22.2% | 7.0% | 25.1µM* | 9.8% | -1.1%
Cc1cccc(NC(=O)CSCC(=O)Nc2ccccc2N2CCCCC2)c1 | 1.5% | · | -18.1% | ? | · | · | 11.2µM* | ·
Cc1ccc(C(c2c(O)cc(C)n(Cc3ccco3)c2=O)N2CCC(C)CC2)cc1 (stereo not given) | · | · | ? | 0.5%[46.1 µM] | · | ? | · | 1.3%
O=C1CC(C(=O)Nc2ccccc2)C2(CCCC2)O1 (stereo not given) | -0.6% | -5.9% | 3.0% | 6.1% | 0.4% | 1.9% | 13.0% | 7.5%
COC(=O)c1ccccc1NC(=O)c1ccc2nccnc2c1 | 6.9% | · | -16.8% | 7.5% | -1.4% | · | ? | ·
COc1ccc2c(C)cc(=S)[nH]c2c1 | -26.7% | 1.1% | -14.6% | ? | 16.9% | · | ? | ·
CCCCNC(=O)c1onc(CSc2nc3ccccc3[nH]2)c1C(=O)NCCCC | 0.3% | 18.6% | -10.7% | · | 0.2% | · | · | ·

Next part.
SMILES | RE007 growth inh | NS1 inh | StopGo reporter | Lassa entry inh | SARS PLP yeast | Cruzain noTriton | Marburg entry inh | Cruzain Triton
O=C(CN1C(=O)CS/C1=C\c1nc(-c2ccc(Cl)cc2)cs1)Nc1cccnc1Cl | 23.5% | 6.8% | -23.7% | ? | -0.2% | · | 2.3% | ·
Cc1cc(NC(=O)c2cc(Cl)ccc2Cl)ccc1-c1cc2ccccc2oc1=O | · | · | -18.7% | ? | · | 16.9% | · | -4.8%
Cc1ccc(C(=O)Nc2cccnc2N2CCN(C)CC2)cc1 | -13.2% | 4.6% | -14.9% | -3.8%[46.1 µM] | -4.2% | · | -0.5%[46.1 µM] | ·
Cc1cc(F)ccc1NS(=O)(=O)c1ccc(-n2cccn2)cc1 | · | · | -11.3% | -9.5%[46.1 µM] | · | -5.1% | · | -8.3%
Cc1ccccc1-n1c(SCC(=O)O)nc2sc3c(c2c1=O)CCCC3 | -3.2% | 8.4% | -18.0% | 24.9%[46.1 µM] | 1.8% | · | 15.1%[46.1 µM] | ·
N#Cc1cccnc1N1CCN(C(=O)COCC(=O)O)CC1 | 3.1% | -2.8% | -8.8% | · | -3.3% | · | · | ·
